Rango-impB inh = Rango-importin beta binding inhibition. Q14974. Rango CFP/YFP FRET sensor + importin beta, 45 min. Potency, µM (doses to about 92.2 µM), inactives show at the top dose inhibition of complex formation. actives 0.031% (n = 340,000); active = rising FRET ratio curve, often small or poorly fitted; inconclusive = mostly compound fluorescence or quenching in the first reads; inactive = flat curves in all reads;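 also: potency is read from the fitted curve at half-maximal effect; 0% = DMSO wells and 100% = buffer wells lacking importin beta; nearly all actives have a fitted effect of over 15% in size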
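Inhibition scored from the CFP 486 nm/YFP 530 nm FRET ratio 45 min after adding 0.125 microM importin beta to 50 nM Rango biosensor preincubated 5 min with compound (room temperature, PBS with DTT, Tween-20, BSA). No-importin wells as positive control.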
GLA inh pH 4.5 = blocks human alpha-galactosidase A at pH 4.5; purified enzyme, 4-MU-alpha-Gal fluorescence, pH 4.5; activity change, negative = inhibition, % at 105 µM; 230,000 tested, under 10 active; inconclusive = small, poorly fitted or top-dose-only inhibition, or a rising curve; inactive = flat fitted curve, though single readings scatter; no compound was filed as active;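 also: 0% = full activity with enzyme and -100% = basal without enzyme; dose as in the result columns while the protocol names 77 µM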
Target sequence (P06280 whole entry, looked up): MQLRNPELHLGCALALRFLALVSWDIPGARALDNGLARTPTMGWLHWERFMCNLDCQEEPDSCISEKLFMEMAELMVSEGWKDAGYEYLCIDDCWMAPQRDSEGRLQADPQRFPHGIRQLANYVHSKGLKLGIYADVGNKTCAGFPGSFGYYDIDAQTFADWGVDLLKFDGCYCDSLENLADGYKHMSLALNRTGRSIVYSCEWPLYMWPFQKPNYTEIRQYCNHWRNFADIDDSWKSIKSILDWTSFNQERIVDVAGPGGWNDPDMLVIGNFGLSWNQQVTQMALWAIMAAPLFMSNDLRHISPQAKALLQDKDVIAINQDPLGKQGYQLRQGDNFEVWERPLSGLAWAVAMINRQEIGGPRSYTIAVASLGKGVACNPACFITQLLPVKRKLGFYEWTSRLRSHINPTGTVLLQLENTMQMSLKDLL
Rango dissoc inh = inhibition of RanGTP-driven Rango-importin beta dissociation. actives 0.071% (n = 340,000). Potency, µM (titrated, usually from 46.1 µM), without a hit: top-dose activity change, negative = inhibition. Biochemical FRET Rango-importin beta, RanGTP-induced dissociation; active means falling FRET ratio curve, often poorly fitted, with flat reads before Ran was added; inconclusive means other falling curves, or compound fluorescence or quenching; inactive means flat or rising ratio curve;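 also: potency is read from the fitted curve at half-maximal effect; % of control where 0% means no effect; nearly all actives have a fitted effect of over 45% in size; -100% = wells without RanGTP and RCC1; the record marks most hits as doubtful in a second field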
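Compounds sat 5 min at room temperature with 0.1 uM Rango biosensor plus 0.25 uM importin beta, then FRET pre-read. RanGTP-RCC1 (0.6 uM Ran, 2mM GTP, 0.2 uM RCC1) added for 45 min, and the CFP/YFP post-read measured blocked complex dissociation.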
miR-21 reporter = raises the signal of a miR-21 reporter; HeLa miR-21 FLuc reporter, luciferase, 48 h; Potency, µM (doses to about 38.3 µM), for the others: at the highest dose reporter change, positive = more light; 340,000 tested, under 10 active; AID 2288; active = well fitted rising curve with a large enough effect; inconclusive = small, poorly fitted or top-dose-only effect; inactive = no such curve, though single readings can be large or run the other way;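 also: % of control where 0% means no effect; miR-21 action dims this reporter so a rising signal means less miR-21 action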
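Using DMEM plus 10% FBS, HeLa miR-21-FLuc cells are incubated with test compounds (final up to about 40uM) for 48 hours; firefly luciferase signal is then imaged following reagent-mediated lysis.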
Active calls of the source: *; ? = inconclusive; / = no result given; & = joins results of further samples. A portion of the library (hit frequency here may not be typical).

SMILES	Rango-impB inh	GLA inh pH 4.5	Rango dissoc inh	miR-21 reporter
O=C(NNC(=O)C1CCN(Cc2ccccc2)CC1)c1cccs1	5.0%	0.4	0.5%	-0.6%
CCCCn1c(N)c(N(CCOC)C(=O)c2cc(CC)c(C)s2)c(=O)[nH]c1=O	-0.5%	/	10.5%	/
CC(C)NC(=S)N1CCN(c2ncccn2)CC1	-0.8%	1.2	-5.6%	-1.4%
Cc1cc(-c2n[nH]c(=S)n2/N=C/C=C/c2ccco2)n[nH]1	1.4%	-4.2	22.0%	-0.6%
Cc1cc2oc(=O)cc(CSc3nnc(-c4cccs4)o3)c2cc1C(C)C	?	3.0	-3.8%	-6.8%
CCN(CC(=O)Nc1cc(Cl)ccc1OC)CC(=O)NC1CCS(=O)(=O)C1 (stereo unspecified)	1.1%	-17.6	-8.3%	-0.6%
Cc1onc(-c2ccccc2)c1C(=O)N1CCC(C)CC1	0.2%	6.0	-6.4%	-7.4%
O=C(c1ccc(S(=O)(=O)Nc2ccccc2)cc1)N1CCCC(C(F)(F)F)C1 (stereo unspecified)	-2.8%	/	11.4%	10.0%
CC1CCCCN1C(=O)COC(=O)/C=C/c1ccc2ccccc2n1 (stereo unspecified)	-1.2%	-8.6	-11.9%	-12.5%
CCc1ccc(-c2ccc(SCC(=O)NCC3CCCO3)nn2)cc1 (stereo unspecified)	0.7%	2.2	-23.1%	-19.2%
CC(OC(=O)c1cccc(N2C(=O)c3ccccc3C2=O)c1)C(=O)Nc1ccc(N(C)C)cc1 (stereo unspecified)	0.4%	-1.5	4.2%	-2.4%
C#CCOc1nc2c(c(=O)n(C)c(=O)n2C)n1Cc1ccccc1	0.5%	4.1	9.9%	4.5%
Cc1ccc(CNC(=O)CCc2ccc(S(=O)(=O)NCC(C)C)cc2)cc1	-0.4%	2.3	-3.5%	-1.0%
Cc1ccc2cccc(OCC(=O)N3CC(C)CC(C)C3)c2n1 (stereo unspecified)	1.0%	-5.7	9.3%	-0.5%
Cc1oc(-c2ccc(Cl)cc2)nc1CN1CCCC(C(=O)N2CCN(C(=O)c3ccco3)CC2)C1 (stereo unspecified)	-0.2%	-1.1	-5.7%	?
C=CCN1C(=O)C(Cc2ccccc2Cl)SC1=Nc1ccc(C(=O)O)cc1 (stereo unspecified)	0.8%	-7.9	4.5%	-5.4%
C[C@H](NC(=O)NCc1ccc(F)cc1)C(=O)O	-3.2%	5.9	-7.4%	-8.1%
CN(c1cccc(NC(=O)c2ccc(C(C)(C)C)cc2)c1)S(C)(=O)=O	-3.3%	-7.9	1.2%	20.3%
COc1ccccc1CNC(=O)N/C=C/c1ccc(Cl)cc1	?	1.1	-0.2%	-3.6%
COc1ccc(-n2c(CCc3ccccc3)nnc2SCC(=O)NCc2ccccc2)cc1	-2.7%	-4.4	-0.7%	-7.1%
Cc1ccc(C(=O)NC(=S)Nc2ccccc2C(F)(F)F)cc1C	6.8%	5.9	-3.2%	-27.3%
CN1C(=O)/C(=N/OC(=O)c2ccccc2Br)c2ccccc21	8.0%	-10.0	7.0%	-0.3%
CC(=O)CC(=O)Nc1ccc(C(N)=O)cc1	3.6%	5.9	-11.4%	-3.4%
O=[N+]([O-])c1ccc2cn[nH]c2c1	9.5%	0.0	9.1%	1.8%
C=CCn1c(CCC(=O)Nc2ccc(C)c(Cl)c2)nnc1SCC(=O)Nc1ccccc1C	1.9%	-3.5	1.3%	1.0%
CCCc1cc(=O)n2[nH]c(NCc3cccs3)nc2n1	-0.6%	-1.7	-12.4%	-12.6%
Cc1c(NC(=O)CN2c3cccc4cccc(c34)S2(=O)=O)c(=O)n(-c2ccccc2)n1C	0.9%	-10.5	-1.8%	-0.2%
CCOc1ccc(CC(=O)C2=C(N3CCOCC3)CC(C)(C)CC2=O)cc1OCC	-0.1%	0.4	9.3%	4.9%
COc1ccccc1N1CCN(C(=O)C(C)NC(=O)c2ccco2)CC1 (stereo unspecified)	-3.0%	/	-5.7%	/
S=C1SCN(Cc2cccnc2)CN1Cc1ccccc1	-0.2%	3.4	14.7%	?

Of the compounds above, these contain a COOH group:
SMILES	Rango-impB inh	GLA inh pH 4.5	Rango dissoc inh	miR-21 reporter
C=CCN1C(=O)C(Cc2ccccc2Cl)SC1=Nc1ccc(C(=O)O)cc1 (stereo unspecified)	0.8%	-7.9	4.5%	-5.4%
C[C@H](NC(=O)NCc1ccc(F)cc1)C(=O)O	-3.2%	5.9	-7.4%	-8.1%

(more compounds)
SMILES	Rango-impB inh	GLA inh pH 4.5	Rango dissoc inh	miR-21 reporter
Cc1cc(=O)n2cccc(O)c2n1	2.2%	?	11.7%	-2.0%
CCCCNC(=S)N(C)N=C1CCC(c2ccccc2)CC1 (stereo unspecified)	0.0%	-0.3	-0.3%	-0.6%
Cn1c(=O)c2ncn(CC(=O)O)c2n(C)c1=O	-0.3%	-2.0	3.1%	-1.9%
COc1ccc(-n2nc3cc(C)c(NC(C)=O)cc3n2)cc1	8.4%	16.3	-8.0%	-49.4%
CN(c1ccc(OCC(=O)O)cc1)S(=O)(=O)c1ccc2ccccc2c1	3.0%	/	-11.8%	-2.5%
CC(C)C(=O)NC(c1ccccc1)c1cc([N+](=O)[O-])c2cccnc2c1O (stereo unspecified)	-1.0%	-11.7	6.6%	?
CCC(CC)n1[nH]c(=O)cc1N	0.1%	4.0	11.8%	0.3%
COc1ccc(OCC(=O)NNC(=O)c2cccs2)cc1	-0.8%	-3.4	3.7%	1.2%
Cn1cc(CN2CCCC(C(=O)Nc3ccc(-c4cccc(F)c4)cc3)C2)cn1 (stereo unspecified)	1.5%	/	2.1%	4.8%
CC(C)(O)C#Cc1ccc(C(=O)NCc2ccccc2)s1	?	/	14.9%	/
Cc1cc(C(=O)Nc2c(C)n(C)n(-c3ccccc3)c2=O)c2ccccc2n1	-1.4%	5.6	11.1%	-1.1%
CCOc1ccc(C(=O)NC2CC(C)(C)NC(C)(C)C2)cc1	0.1%	/	-21.1%	-0.2%
COc1ccc(C)cc1Cn1c(S(C)(=O)=O)nc2ccccc21	4.7%	-0.3	17.6%	-5.7%
CC1CCN(C(=O)COc2ccccc2F)CC1	0.1%	-7.6	-1.3%	-12.5%
O=C(Nc1ccccc1Cl)C1CCCN(S(=O)(=O)c2ccc(-n3cnnn3)cc2)C1 (stereo unspecified)	-2.8%	/	-13.6%	-0.5%
Cc1c(C(=O)N2CCOCC2)c(S(=O)(=O)Nc2ccccc2)c(C)n1C	0.3%	/	-11.8%	1.8%
CCCCNc1nc(N)ncc1[N+](=O)[O-]	1.3%	-14.3	12.7%	-27.2%
CC(=O)ON1C(C)(C)Cc2noc(N)c2C1(C)C	1.9%	-2.2	10.9%	1.2%
COc1cccc(C2C(C#N)=C(N)N(c3ncn[nH]3)C3=C2C(=O)CCC3)c1 (stereo unspecified)	-1.4%	6.0	7.3%	-11.2%
CCc1cccc(C)c1NC(=S)N1CCCCC1c1cccnc1 (stereo unspecified)	15.6%	-1.7	12.7%	-11.0%
CS(=O)(=O)N1Cc2ccccc2CC1C(=O)OCC(=O)Nc1ccc2ccccc2c1 (stereo unspecified)	0.6%	-1.6	2.7%	-5.3%
COc1ccc(/C=C/C(=O)N(CC(C)C)C2CCS(=O)(=O)C2)cc1 (stereo unspecified)	-0.3%	/	20.7%	/
COc1cc(/C=C(\C#N)C(=O)NCC2CCCO2)ccc1OCC(N)=O (stereo unspecified)	-6.3%	-3.5	-16.3%	3.9%
CC(C)(C)c1ccc(C(=O)NCC(=O)OCC(=O)Nc2ccccc2[N+](=O)[O-])cc1	-2.0%	-12.8	0.5%	-2.9%
Nc1nc(SCC(=O)Nc2ccc(C(F)(F)F)cc2)[nH]c(=O)c1NC(=O)c1ccc(F)c(F)c1	-1.2%	/	1.3%	-0.5%
Cc1ccccc1C(=O)Nc1ccccc1Sc1ccccc1	-1.0%	-1.5	20.2%	-4.0%
O=C(c1ccc(S(=O)(=O)Nc2ccc(F)cc2)cc1)N1CCN(C(=O)c2ccco2)CC1	3.9%	4.0	0.6%	13.8%
CN(C)c1ccsc1C(=O)NNS(=O)(=O)c1ccc(Cl)cc1	-1.3%	/	2.4%	/
COc1ccccc1-c1noc(-c2ccco2)n1	1.7%	-14.0	1.5%	-52.7%
COC(=O)[C@H](Cc1ccccc1)NC(=O)NCCc1ccc(F)cc1	-0.3%	-0.5	-12.4%	5.6%
Cc1ccc(N(CC(=O)N2CCN(c3ccccc3F)CC2)S(=O)(=O)c2c(C)noc2C)cc1	-2.5%	/	-1.4%	0.6%&-3.9%
O=C(NCc1ccc2c(c1)OCO2)c1ccc2c(c1)C(=O)N(CC1CCCO1)C2=O (stereo unspecified)	-0.3%	6.2	50.7%	-2.0%
Cc1c(Nc2nc3ccccc3nc2N2CCN(c3ccccc3)CC2)c(=O)n(-c2ccccc2)n1C	-0.6%	-8.1	-25.3%	4.1%
CCOC(=O)C1(CCOC)CCN(Cc2ccc3nonc3c2)CC1	0.7%	-3.2	37.2%	-2.4%
Cc1ccc(S(=O)(=O)N2CCC(C(=O)N[C@@H](C)C(=O)NC3CCCCC3)CC2)cc1	4.5%	-1.5	-5.2%	-0.1%
COC(=O)[C@H](NC(=O)c1cc(-c2ccccc2)nc2ccccc12)c1ccccc1	4.0%	-21.6&-10.3	7.6%	/
c1coc(C2=NCCc3ccccc32)c1	5.0%	/	-7.8%	-3.2%
CC(C)N=C(NC#N)SCc1ccccc1	-1.0%	-13.3	-2.6%	-11.1%
CN(C)S(=O)(=O)c1ccc(C(=O)Nc2nnc(SCc3ccccc3)s2)cc1	-2.6%	-16.7	-3.0%	-0.8%
O=C(COC(=O)CNC(=O)c1cccc([N+](=O)[O-])c1)NCc1ccco1	-1.6%	-11.8	7.7%	-2.0%
CCC(C)(C)n1nnnc1C(c1ccc(N(C)C)cc1)N1CCN(C2CCCCC2)CC1 (stereo unspecified)	0.7%	0.9	-15.5%	3.0%
O=C(Nc1ccc(F)c(Cl)c1)C1CCCC1	5.3%	/	43.9%	/
C=CCN=C1CC(C)(C)CC(=O)/C1=C(\O)CCCN1C(=O)c2ccccc2C1=O	-2.9%	7.8	13.8%	-2.2%
O=c1cc(CO)oc(CN2CCN(c3ccccc3)CC2)c1O	0.0%	2.8	14.4%	0.0%
COc1ccc(C(=O)N2CCN(c3ccccc3)CC2)cc1S(=O)(=O)N1CCCC1	0.0%	/	-1.6%	-2.0%
Cc1ccc(S(=O)(=O)NCCC(=O)OCn2nnc3ccccc3c2=O)cc1	-0.3%	-6.6	-7.8%	-9.7%
CCn1c2ccccc2c2cc(NC(=O)C3CCN(S(=O)(=O)c4cccs4)CC3)ccc21	1.2%	-9.7	7.5%	0.6%
CCN(CC)c1nc(-c2ccc(Cl)cc2)cc(C(F)(F)F)c1C#N	-3.1%	8.7	9.0%	3.0%
Cc1ccc(C2C(C#N)=C(N)Oc3n[nH]c(-c4cccs4)c32)s1 (stereo unspecified)	6.8%	1.0	-7.4%	-4.7%
Cc1ccc(Nc2nc(=O)c3cccnc3s2)cc1	-0.4%	2.8	1.6%	-30.6%
CC(=O)Oc1cc(C(=O)OCC(=O)NC23CC4CC(CC(C4)C2)C3)cc(OC(C)=O)c1OC(C)=O	?	/	-7.8%	/
N/C(=N\OC(=O)Nc1ccccc1)c1cccc(C(F)(F)F)c1	-0.9%	/	7.5%	-31.3%
Nc1nc(N)c2c(n1)CCCC2	0.0%	2.3	-3.0%	-2.1%
CCOC(=O)N1CCN(CC(=O)NC(=O)Nc2ccc3c(c2)OCCO3)CC1	-3.7%	/	1.1%	/
O=C(Oc1ccc(-c2cnc3ccccc3n2)cc1)c1cccc([N+](=O)[O-])c1	0.9%	-1.0	2.7%	-9.8%
COc1ccccc1CNC(=O)OCc1nccnc1C(=O)Nc1ccc(Br)cn1	4.4%	/	-3.5%	-9.9%
O=C(NC(=S)NC1CCS(=O)(=O)C1)c1ccccc1F (stereo unspecified)	4.6%	/	-4.6%	1.5%
COc1ccc(C)cc1NC(=O)C1CCC(CNc2c(N3CCOCC3)c(=O)c2=O)CC1 (stereo unspecified)	1.2%	-1.1	-2.7%	-2.7%
N#Cc1ccccc1Oc1ccccc1C=O	?	2.9	6.4%	10.6%
COC(=O)c1ccccc1COn1c(=O)c(C)[n+]([O-])c2ccccc21	-1.7%	2.6	0.8%	0.5%

Screening results: PubChem BioAssay, National Center for Advancing Translational Sciences (NCATS)
